Source: PubChem (several laboratories)
Env fusion inh – inhibitors of HIV-1 Env-driven cell-cell fusion, primary screen, HeLa-JRFL effector, CEM21 target cells, luciferase; inhibition, % at 12.3 µM; actives 1.1% (n = 360,000); AID 651610, 2012;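 active = mean replicate inhibition score of at least 50 and every replicate individually at or above 50; inconclusive = only one of the two criteria met; inactive = mean below 50 and not all replicates reaching 50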;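 also: 0% = plate neutral controls and 100% = maraviroc near 300 nM; one replicate is shown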
eIF4H FP inh – human eIF4H binding inhibitors, primary screen, translation initiation inhibitor project, biochemical, uHTS, fluorescence polarization; Eukaryotic translation initiation factor 4H (Homo sapiens), Q15056; eIF4H fluorescence polarization binding assay; inhibition, % at 35 µM; actives 0.94% (n = 290,000); AID 2012, 2009;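 active = 50% or more with normal probe brightness, or confirmed in later tests; inconclusive = above 50% with abnormal brightness, or retests that disagree; inactive = below 50% or failed in later tests; about a fifth of its hits are not listed in these tables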;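 also: calls also rest on retests at 20 µM and on dose response follow-up; 0% = protein and probe with vehicle and 100% = probe without protein; strong numbers were not always called active; many hits fall short of the cut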
PABP FP inh – PABP poly(A) RNA binding inhibitors, primary screen, biochemical, fluorescence polarization, uHTS; AID 2014, 2009; actives 1% (n = 290,000); Polyadenylate-binding protein 1 (Homo sapiens), P11940; inhibition, % at 35 µM;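 active = 50% or more with normal probe brightness, or confirmed in later tests; inconclusive = above 50% with abnormal brightness, or retests that disagree; inactive = below 50% or failed in later tests; about a fifth of its hits are not listed in these tables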;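 also: calls also rest on retests at 20 µM and on dose response follow-up; controls were probe without protein and protein plus probe with vehicle; some compounds called inactive have numbers as strong as hits; many hits fall short of the cut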
Target sequence (P11940 whole entry, looked up): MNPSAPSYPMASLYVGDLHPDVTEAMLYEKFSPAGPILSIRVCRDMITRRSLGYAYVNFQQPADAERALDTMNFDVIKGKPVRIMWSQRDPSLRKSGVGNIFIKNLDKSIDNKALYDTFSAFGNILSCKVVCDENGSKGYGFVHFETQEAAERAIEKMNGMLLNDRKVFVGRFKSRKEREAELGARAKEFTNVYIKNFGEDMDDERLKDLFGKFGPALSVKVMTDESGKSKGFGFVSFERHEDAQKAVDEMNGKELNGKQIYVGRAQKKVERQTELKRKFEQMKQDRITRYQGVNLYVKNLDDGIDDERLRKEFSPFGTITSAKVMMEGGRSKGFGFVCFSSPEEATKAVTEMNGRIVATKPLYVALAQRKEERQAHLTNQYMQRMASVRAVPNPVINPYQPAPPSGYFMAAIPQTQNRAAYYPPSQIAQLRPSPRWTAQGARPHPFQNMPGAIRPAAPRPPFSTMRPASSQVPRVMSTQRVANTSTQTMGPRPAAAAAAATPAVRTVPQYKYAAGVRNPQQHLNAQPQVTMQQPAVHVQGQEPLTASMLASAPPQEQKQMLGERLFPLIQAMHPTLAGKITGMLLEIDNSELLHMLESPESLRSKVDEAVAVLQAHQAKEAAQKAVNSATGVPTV
Rce1 inh – yeast Rce1p protease inhibitors, primary screen, biochemical, fluorescence, cell-free homogeneous; yeast membranes, quenched prenylated peptide cleavage fluorescence; actives 0.27% (n = 290,000); calls only; CAAX prenyl protease 2 (Saccharomyces cerevisiae (strain ATCC 204508 / S288c)), Q03530;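 active = fall in fluorescence gain of 50% or more versus controls, with final raw signal at or below 3038400; inconclusive = same 50% fall but final raw signal above 3038400; inactive = fall in fluorescence gain under 50%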;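 also: plate controls were neutral control wells for no effect and wells lacking membranes for full effect; tested at 10 µM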
Target sequence (Q03530 whole entry, looked up): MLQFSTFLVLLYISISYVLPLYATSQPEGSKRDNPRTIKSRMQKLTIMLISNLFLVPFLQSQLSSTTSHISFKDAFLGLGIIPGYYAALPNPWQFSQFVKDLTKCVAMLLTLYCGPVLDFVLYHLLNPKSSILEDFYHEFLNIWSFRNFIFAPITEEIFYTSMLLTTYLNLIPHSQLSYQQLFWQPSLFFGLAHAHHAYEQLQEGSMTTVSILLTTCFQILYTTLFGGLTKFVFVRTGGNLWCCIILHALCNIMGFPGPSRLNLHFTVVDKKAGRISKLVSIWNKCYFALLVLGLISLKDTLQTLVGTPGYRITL
MT1-MMP act inh – blockers of MT1-MMP proenzyme processing, primary screen, HT1080 RFP-PRO-GFP cells, GFP/RFP fluorescence | Matrix metalloproteinase-14 (Homo sapiens), P50281 | GFP/RFP ratio fluorescence, overnight; percent of plate control window, DMSO zero | GFP/RFP ratio change, % at 20 µM | actives 0.061% (n = 360,000) | AID 651647, 2012;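 active = GFP/RFP ratio change of at least 30% with cell ATP level not reduced by more than half and red fluorescence within 50% of control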; also: strong numbers were not always called active
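Material – HT1080 RFP-PRO-GFP cells · Control set – DMSO wells and RFP-L50D-GFP cells · Incubation – overnight cell settling, then overnight compound exposure, 37 °C, 5% CO2 · Compound dosing – single-point 20 µM compound, 1% DMSO · Read-out – GFP/RFP fluorescence ratio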
CSC inhib – cancer stem cell viability inhibitors, primary screen, luminescence | AID 2717, 2010 | inhibition, % at 7.5 µM | cancer stem cell-like cells viability | actives 1.1% (n = 300,000);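 active = mean at 75% or more and at least half the replicates too; inconclusive = mean and replicates disagree; tested in HMLE shEcad cells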;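 also: 0% = median of negative and 100% = median of positive control wells; the first replicate is given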
UUG fidelity – modulators of yeast start codon fidelity, primary screen, whole organism, S. cerevisiae, single point, plate reader; S. cerevisiae UUG-firefly luciferase reporter, luminescence/redox ratio; activity score, % at 18.7 µM; actives 0.13% (n = 350,000); AID 602363, 2012;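 active = replicate mean at a twofold rise or more, about +100% in these data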;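 also: firefly luciferase made from a UUG start codon reports start codon fidelity; reporter light over untreated wells divided by growth signal over untreated wells; some hits fall short of that in this replicate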
eIF4H FP inh retest – also measured in eIF4H FP inh; calls as there; inhibition, %; compound at 20 µM; confirmation average;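 mean of two retest wells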
PABP FP inh retest – second read-out of PABP FP inh, no call of its own (marks repeat the call); inhibition, %; compound at 20 µM; confirmation repeats;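 mean of two retest wells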
MT1-MMP act inh RFP – second read-out of MT1-MMP act inh, no call of its own (marks repeat the call); RFP signal change, %; measured here: RFP expression control read;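 0 = vehicle wells; hits needed this value within 50% of zero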
* hit, by the source's call; i = inactive; ? = inconclusive; nt = no result given; & = joins results of further samples; [ ] = another dose, or the depositor's remark. Not a hit list; about 3% have a hit in one of these screens.

SMILES	Env fusion inh	eIF4H FP inh	PABP FP inh	Rce1 inh	MT1-MMP act inh	MT1-MMP act inh RFP	CSC inhib	UUG fidelity	others
COc1ccc(C(NC(C)=O)c2cc(Cl)c3cccnc3c2O)cc1OC (centres undefined)	3	11	-7	i	-8	-1	2	nt
Cc1cccc(C(=O)NNC(=O)C2CCN(C(=O)OC(C)(C)C)CC2)c1	-5	-2	9	i	2	4	-11	2
O=C(COc1ccc(Cl)cc1Cl)NNC(=S)Nc1ccc(F)cc1	nt	16	-6	i	19	-5	-15	-1
COc1ccc(C(=O)Nc2ccc(F)cc2F)cc1	nt	-8	7	i	4	5	0	-19
O=C1OCC(c2ccc(Cl)s2)=C1c1ccccc1[N+](=O)[O-]	7	-2	5	i	-3	-3	-12	-8
Cc1ccc(NC(=O)CN(C)C(=O)c2ccc(C(F)(F)F)cc2)cc1	2	3	5	i	2	0	3	nt
Nc1c(CO)nnn1-c1ccccc1	-39	0	-11	i	-12	0	4	-12
Oc1ccc(Br)cc1CN1CCCCCCC1	9	7	8	i	3	1	2	-6
CCOc1cc(NC(=S)NCC(C)C)c(OCC)cc1NC(=O)c1ccco1	-22	-5	4	i	5	-3	-8	nt
Cc1ccccc1-c1nc(CS(=O)CC(=O)NC2CCCC2)c(C)o1 (centres undefined)	2	-3	-2	i	-5	-1	-13	-9
Cc1ccc2cc(C#N)c(NCCCNC(=O)C3CCCO3)nc2c1 (centres undefined)	-2	0	6	nt	0	1	-12	8
COc1ccc(S(=O)(=O)N2CCCN(S(=O)(=O)c3ccc(OC)c(C)c3)CC2)cc1C	nt	-10	52	i	-12	-13	23	8	eIF4H FP inh retest=-18;PABP FP inh retest=10
N#C/C(=C\c1c[nH]c2ccc(Br)cc12)c1ccccn1	-5	2	7	i	2	-1	79*	-1
O=C1CCC(C(=O)OCc2nnc(-c3ccccc3)o2)=NN1	3	nt	nt	i	3	3	-9	-12
CC(=O)c1ccc(N2CCN(S(=O)(=O)c3ccc(-c4cc(C)no4)s3)CC2)cc1	-14	-4	-1	i	2	-1	-7	4
CCCCOC(=O)c1ccc(NC(=O)c2cc(Cl)ccc2OC)cc1	nt	-6	0	i	6	0	-6	nt
O=Cc1cccn1Cc1ccc(Cl)cc1Cl	-8	-8	0	i	-5	1	-6	-14
CN(C)/C=C/C(=O)c1ccccc1	-52	-4	-3	i	-1	3	-3	-2
C[C@@H](C(=O)NNC(=O)c1ccc(Cl)cc1)N1C(=O)C2CC=CCC2C1=O (some centres undefined)	21	nt	nt	nt	11	3	-19	-1
C[C@H]1CN([C@@H](C)CO)C(=O)CCCn2nncc2CO[C@H]1CN(C)S(=O)(=O)c1ccccc1	4	nt	nt	nt	2	1	nt	-9&2
Cc1ccc(S(=O)(=O)CC(=O)NCc2ccccc2)cc1	1	-14	5	i	-4	4	15	-16
O=C(Cc1ccc(Cl)cc1Cl)Nc1ccc(OC(F)F)c(Cl)c1	nt	8	3	i	2	2	20	-19
Cc1nnc(NC(=O)CSc2ccc(-c3ccccn3)nn2)s1	nt	-14	11	i	nt	nt	-6	nt
NC(Cc1ccc(C(F)(F)F)cc1)c1csc(NC(=O)Nc2ccccc2Oc2ccccc2)n1 (centres undefined)	54	nt	nt	nt	-16	-13	nt	-17
COc1ccc(-c2c(C#N)c(N)nc3c2CCc2ccccc2-3)cc1OC	?	-1	-3	i	nt	nt	53	nt
Additional structures
SMILES	Env fusion inh	eIF4H FP inh	PABP FP inh	Rce1 inh	MT1-MMP act inh	MT1-MMP act inh RFP	CSC inhib	UUG fidelity	others
CS(=O)(=O)Nc1ccc(-c2nnc3n2CCCCC3)cc1	1	-5	-4	i	-4	2	-13	-18
CC1=CCC2C(=O)N(c3ccc(OC(=O)c4ccco4)cc3)C(=O)C2C1 (centres undefined)	0	-6	-3	i	0	4	-6	-12
CCN(CC)S(=O)(=O)c1ccc(OCC(=O)NC2CCS(=O)(=O)C2)c([N+](=O)[O-])c1 (centres undefined)	-1	-5	6	i	0	-4	-5	nt
Cc1ccc(S(=O)(=O)NCCc2cccs2)cc1	9	-3	-6	i	-1	0	8	-4
CS(=O)(=O)N1CCC(C(=O)N2CCN(c3cccc(Cl)c3)CC2)CC1	24	-6	-6	i	2	1	-6	-21
Cc1ccc(NC(=O)CCN2CCN(C)CC2)cc1	4	-8	-17	i	0	1	-17	-6
Cc1nc(-c2ccncc2)nc(NCCNc2ccc(C(F)(F)F)cn2)c1Cl	34	-8	-1	i	-1	-10	8	nt
Cc1nnc(NC(=O)CSc2ccc(-c3cccnc3)nn2)s1	5	2	0	i	-6	-4	-10	nt
Cc1ccccc1-n1c(-c2ccc(Cl)cc2)cnc1SCC(=O)NC1CCS(=O)(=O)C1 (centres undefined)	1	-8	-13	i	-4	-4	3	-2
Cc1csc(NC(=O)CSc2nnc(NC(=O)COc3ccccc3)s2)n1	11	1	-1	i	-4	-4	-5	-18
O=C(NCc1cccnc1)C1CC(=O)N(CCc2ccccc2)C1 (centres undefined)	-24	-2	3	i	-2	2	-3	0
CC(=O)Nc1cccc(N)c1	nt	nt	nt	nt	2	4	-7	-1
O=C(N/N=C\c1ccccn1)c1ccccc1O	4	9	3	i	6	5	-5	nt
CC(Oc1ccccc1)C(=O)NC1CCCCCCC1 (centres undefined)	1	1	-11	i	-5	-3	2	-35
CCCCCc1cc(O)c2c(C)cc(=O)oc2c1	6	-7	-8	i	-5	-33	61	-12
O=C1CCCN1CCCNC(=S)Nc1cccc2ccccc12	26	-7	-7	i	1	10	-14	nt
C1CCc2c(nnc3c2-c2nonc2CC3)C1	nt	-11	6	i	2	4	-1	nt
COc1cccc(NC(=O)CCC2CCN(C(=O)c3scnc3C)CC2)c1	-25	-9	4	i	1	0	6	-13
COC(=O)/C(=N\Nc1ccccc1)Sc1nnc(-c2ccc(OC)cc2)n1C	-2	2	-5	i	-2	4	-5	-12
N#CCc1c(C#N)c(N)nc(N2CCN(Cc3ccc4c(c3)OCO4)CC2)c1C#N	-32	-2	-7	i	-12	-2	nt	-1
Cc1ccnc(NS(=O)(=O)c2ccc(NC(=O)C3CCCO3)cc2)n1 (centres undefined)	nt	2	2	i	6	1	4	-8
CCc1nc(NCC2CCCO2)c(C#N)c2c1COC(C)(C)C2 (centres undefined)	nt	8	7	i	-1	-4	1	7
CCCn1c2c(c(O)c(C(=O)Nc3nc(C)cs3)c1=O)CCCC2	nt	1	-8	i	nt	nt	nt	nt
C=CCNC(=O)N1CCC(n2nccc2NC(=O)CCc2ccccc2)CC1	-5	-9	10	i	3	6	8	-22
COc1ccc(CNCc2ccc(C(F)(F)F)cc2)cc1OC	3	8	6	i	-4	1	-11	-26
(further entries)
SMILES	Env fusion inh	eIF4H FP inh	PABP FP inh	Rce1 inh	MT1-MMP act inh	MT1-MMP act inh RFP	CSC inhib	UUG fidelity	others
COc1ccc(Br)cc1CN1CCN(S(=O)(=O)Cc2ccccc2)CC1	-1	-3	5	i	-3	-3	0	-9
Cc1c(S(=O)(=O)NC(C)c2ccccc2)c(=O)n(C)c(=O)n1C (centres undefined)	24	0	-2	i	-2	5	-3	-8
COCCOC(=O)C1=C(C)NC(C)=C(C(=O)OCCOC)C1/C=C/c1ccccc1OC	19	-6	1	i	-1	4	7	nt
CC(=O)Nc1ccc(NC(=O)CCOc2cc(C)ccc2C)cc1	-11	6	6	i	-1	-2	-12	-12
CCOC(=O)c1sc(NC(=O)CC(C)c2ccccc2)nc1C (centres undefined)	-39	3	-5	i	-7	-12	-2	-11
O=C(NCc1cccnc1)Nc1ccc(Br)cc1Cl	56*	30	14	i	2	-3	6	-17
Cc1ccc(NC(=O)CNCc2cccs2)cc1Br	7	3	-6	i	3	2	-7	-5
COc1ccc(C)cc1NC(=O)C(OC(=O)CNC(=O)c1ccc(Oc2ccccc2)cc1)c1ccccc1 (centres undefined)	-15	-10	7	i	-2	3	0	-5
CCCC(C)C(=O)Nc1nnc(C)s1 (centres undefined)	-36	-11	-10	i	-2	3	3	-17
Cc1cc(-c2ccc(C)c(S(=O)(=O)NCCCN3CCN(c4ccccc4F)CC3)c2)on1	18	-11	0	i	-4	-23	13	1
COc1ccc(-c2cc(C(=O)Nc3ccccc3)on2)cc1	-14	5	-4	i	3	-4	6	nt
CCN(CC)CCNC(=O)C1CCN(S(=O)(=O)N2CCCCC2)CC1	nt	-5	-11	i	0	5	-9	-4
COc1ccc(-c2csc(NCc3ccco3)n2)cc1	nt	1	-3	i	-8	0	5	nt
O=C(Nc1ccccc1C(=O)NCc1ccccc1)c1ccccc1	13	-12	-14	i	-2	4	1	-6
CCCCC(=O)N(CCOC)c1nnc(-c2ccc(OC)cc2)s1	-12	3	-6	i	-4	-6	-3	-9
COc1ccc(NS(=O)(=O)c2cccc(C(=O)NN=Cc3ccc(OC)cc3OC)c2)cc1	10	nt	nt	nt	0	7	-15	-16
CCCCCN(C(=O)NC(=O)Nc1nncs1)S(C)(=O)=O	nt	-11	8	i	-1	0	nt	-33
C[C@H]1CN([C@@H](C)CO)S(=O)(=O)c2ccc(Br)cc2O[C@H]1CN(C)C(=O)c1cnccn1	29&24[16.7 µM]	nt	nt	nt	1	2	nt	-6&-5&-4
ClCc1ncc(-c2ccc(Cl)cc2)o1	-23	10	17	nt	-3	-5	-5	nt
Cc1ccccc1S(=O)(=O)Nc1ncnc2ccccc12	4	-14	-1	nt	-4	-3	4	1
CCN(CC)CCNC(=O)c1ccc2c(=O)n(C3CCCC3)c(=S)[nH]c2c1	10	-6	6	i	9	-1	71	-19
CC(=O)c1sc(NC(=O)CCS(=O)(=O)c2ccc(Cl)cc2)nc1C	5	nt	nt	i	-1	-3	20	nt
COc1cccc(CNC(=O)CN2c3cccc4cccc(c34)S2(=O)=O)c1	2	nt	nt	i	10	6	9	-1
Cc1cccc(-c2noc(-c3ccc(Cl)cc3[N+](=O)[O-])n2)c1	nt	2	-1	i	-2	1	11	nt
CC(NC(=O)Nc1ccc(Cl)cc1)c1ccc2c(c1)OCO2 (centres undefined)	-44	-8	-11	i	16	1	0	2
O=C(NC(=S)NN1CCOCC1)c1cc(Br)ccc1Cl	nt	nt	nt	nt	1	0	-10	11
Cc1c(NC(=S)N/N=C/C=C/c2ccc([N+](=O)[O-])cc2)c(=O)n(-c2ccccc2)n1C	-4	-9	1	i	-4	-2	-12	nt
O=C(NCc1ccc(F)cc1)c1cccc2c1C(=O)N(Cc1cccnc1)C2	10	14	0	i	2	9	-3	-21
COCCC(=O)N1CCC(Oc2ccc(C(=O)NC3CCCCC3)cc2)CC1	1	3	9	i	1	-1	-5	-9
COc1ccc(-c2nnnn2C)cc1S(=O)(=O)NCCc1ccccc1	?	-2	-5	i	4	3	-10	-1
